Screens as filed in PubChem.
PINK1 modulator: PINK1 expression modulation; PINK1 immunofluorescence, high-content cytometry, 24 h; Potency, µM (top dose mostly 76.6 µM), for inactives: at the top dose activation (PINK1 increase), actives largely listed as activators; actives 0.2% (n = 410,000); active = well fitted activation curve with a large enough effect; inconclusive = small, poorly fitted or top-dose-only effect; inactive = flat fitted curve, though single readings scatter; cell line not stated here;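 also: potency is read from the fitted curve at half-maximal effect; % of control where 0% means no effect; nearly all actives have a fitted effect of over 65% in size; a mitochondrial uncoupler was the plate control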
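Cells are seeded, rested 12 hours, then given compound at five concentrations or DMSO for 24 hours. After fixation, blocking and antibody staining, PINK1 amount and mitochondrial localization are scored; CCCP serves as control.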
D2 ag: activates the human D2 dopamine receptor; P14416; DiscoveRx PathHunter D2 beta-arrestin, luminescence, 90 min; 100% = 57 uM dopamine signal; activation, % (test concentration not listed); actives 0.084% (n = 360,000); in the data active = activation above about 40%; inconclusive = about 15% to 40%; inactive = below about 15%; also: compound concentration not given in the record; the text of the record calls up to 30% inactive
Target sequence (P14416 whole entry, looked up): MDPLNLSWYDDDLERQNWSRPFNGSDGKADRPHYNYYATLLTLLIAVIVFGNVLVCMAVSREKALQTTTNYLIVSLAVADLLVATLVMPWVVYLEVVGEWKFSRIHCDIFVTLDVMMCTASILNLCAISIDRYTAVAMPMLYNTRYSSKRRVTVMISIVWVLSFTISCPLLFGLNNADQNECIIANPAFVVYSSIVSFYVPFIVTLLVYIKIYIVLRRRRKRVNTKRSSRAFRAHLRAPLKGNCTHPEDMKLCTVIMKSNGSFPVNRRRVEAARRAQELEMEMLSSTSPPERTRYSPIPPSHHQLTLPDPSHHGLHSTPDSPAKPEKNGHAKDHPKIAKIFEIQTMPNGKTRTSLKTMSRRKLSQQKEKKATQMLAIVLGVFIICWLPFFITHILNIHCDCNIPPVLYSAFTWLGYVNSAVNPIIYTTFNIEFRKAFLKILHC
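Agonist mode: compounds alone added to overnight-plated D2 PathHunter cells for 90 min at 37 C, with 57 uM final dopamine (EC100) defining full response. Beta-arrestin recruitment detected by chemiluminescent reagent, read after 1 h at ambient temperature.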
TRPML1 inh: inhibitors of human TRPML1 channel; TRPML1-inducible cells, Ca2+ dye fluorescence, FDSS; active compounds read low; inhibition of EC80 agonist-evoked calcium signal; Q9GZU1; activity change, negative = inhibition, % (no concentration beside the values); actives 0.02% (n = 390,000); AID 624415; in the data active means activity change below about -50%; inconclusive means about -30% to -50%; inactive means above about -30%;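 also: stimulus is agonist 54-4 at its EC80 concentration; % is scaled to controls: 0 for no effect and ±100 for the full control effect; compound concentration not given in the record; the text of the record puts the active cut at -80%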
Target sequence (Q9GZU1 whole entry, looked up): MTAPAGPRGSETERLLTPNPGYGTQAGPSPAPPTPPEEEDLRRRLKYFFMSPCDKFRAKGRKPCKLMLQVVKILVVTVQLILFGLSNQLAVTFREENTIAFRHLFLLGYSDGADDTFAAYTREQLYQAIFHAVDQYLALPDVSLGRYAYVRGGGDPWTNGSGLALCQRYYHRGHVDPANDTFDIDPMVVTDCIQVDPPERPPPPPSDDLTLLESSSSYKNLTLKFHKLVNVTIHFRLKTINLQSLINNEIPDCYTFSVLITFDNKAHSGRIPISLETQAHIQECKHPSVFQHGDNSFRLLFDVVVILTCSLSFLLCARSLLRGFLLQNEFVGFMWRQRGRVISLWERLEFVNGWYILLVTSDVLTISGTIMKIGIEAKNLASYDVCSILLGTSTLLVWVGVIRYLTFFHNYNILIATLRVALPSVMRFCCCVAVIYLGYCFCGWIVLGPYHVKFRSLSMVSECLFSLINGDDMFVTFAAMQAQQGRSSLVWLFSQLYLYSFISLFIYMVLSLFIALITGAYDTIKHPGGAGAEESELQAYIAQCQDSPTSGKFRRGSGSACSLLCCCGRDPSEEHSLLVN
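TRPML1-DL cells, Tet-induced overnight (~16 h, 37 °C) at 1,500 cells/well, were loaded with Ca8 no-wash dye plus quencher for 45-90 min at room temperature. Compounds were pinned during FDSS kinetic reading; agonist 54-4 at EC80 (4 uM final) then added.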
TRPML1 agonist: human mucolipin-1 channel agonism. TRPML1-expressing cells, Ca2+ dye fluorescence, FDSS; host cell line not named in the record; reference of the full effect not given here. activation, % (no concentration beside the values). actives 0.12% (n = 410,000). AID 624414; in the data active = activation above about 50%; inconclusive = about 30% to 50%; inactive = below about 30%; also: 0% is about no effect; the text of the record puts the active cut at 80%
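Tet-induced TRPML1-DL cells, 1,500 per well, cultured overnight, were loaded with a no-wash Ca2+ dye for 45–90 min. Calcium fluorescence was recorded on the FDSS for 110 s after compound addition, before the EC80 agonist (4 uM 54-4) was added.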
Six1-Eya2 inh: inhibitors of human Six1/Eya2 interaction. AlphaScreen GST-Six1/His-Eya2 binding, biochemical; active compounds read low; control for the full effect not named in the record. actives 0.56% (n = 360,000). activity change, % (no concentration beside the values). Q15475+O00167; in the data active = activity change below about -65%; inconclusive = about -30% to -65%; inactive = above about -30%; also: % is scaled to controls: 0 for no effect and ±100 for the full control effect
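GST-Six1 + His-Eya2 (5X stock: 250/500 nM); Tris pH 8.0, 300 mM NaCl, 0.05% BSA, 0.02% Tween 20; GSH donor/Ni acceptor beads; 1 h 37 °C dark; AlphaScreen readout.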
CtBP-E1A blk: inhibitors of CtBP/E1A interaction. AlphaScreen GST-E1A/His-CtBP binding, 1536-well; active compounds read low; control for the full effect not named in the record. activity change, % (test concentration not listed). actives 0.49% (n = 340,000). AID 651724; in the data active means activity change below about -65%; inconclusive means about -30% to -65%; inactive means above about -30%; also: % is scaled to controls: 0 for no effect and ±100 for the full control effect
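GST-E1A and His-tagged CtBP (125 nM each as 5X stock) were preincubated with pin-transferred compound for 2 h at 37 °C in the dark, then glutathione donor and nickel acceptor beads were added for 1 h before AlphaScreen reading.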
Numbers without * were called inactive; ? = inconclusive; . = no result given; & = joins results of further samples; [ ] = remark or other dose.

SMILES	PINK1 modulator	D2 ag	TRPML1 inh	TRPML1 agonist	Six1-Eya2 inh	CtBP-E1A blk
Cc1ccccc1Nc1nc(NCc2ccco2)c2ccccc2n1	-1.6%	-2.0	23	0.4	1	11
COC(=O)C1=CO[C@@H](O[C@@H]2O[C@H](CO)[C@@H](O)[C@H](O)[C@H]2O)C2C(CO)=CCC12 (some centres not stated)	0.2%	1.9	-5&-19	-0.9&1.1	7	3
C/C=C/c1ccc(OCCCNC)c(OC)c1	-2.0%	0.2	-15	0.2	-1	-2
COc1cc([N+](=O)[O-])cc(/C=C2/SC(=S)N(Cc3ccccc3)C2=O)c1O	35µM*	-3.5	2	23	-6	.
CNC(=S)N(CCCn1ccnc1)Cc1c(F)cccc1Cl	2.5%	-6.0	13	0.5	3	-2
CC(C)CCn1cnc2c(oc3nc4c(cc32)CCCC4)c1=O	4.6%	-1.4	-8	2.4	-2	-4
O=C(O)CCC(=O)N1CCc2cc(S(=O)(=O)NCc3ccc(F)cc3)ccc21	2.3%	.	32	1.2	.	.
COc1ccc(S(=O)(=O)/C(C#N)=C/Nc2ccc(NC(C)=O)cc2)cc1	0.8%	-0.7	19	1.0	-2	.
CCN1C/C(=C/c2ccc(N3CCOCC3)cc2)C(=O)/C(=C/c2ccc(N3CCOCC3)cc2)C1	3.5%	-5.9	-15	?	5	-2
Cc1ccc(CC(=O)Nc2ccncc2)cc1	0.0%	0.1	-6	0.0	7	.
CC[C@H](C)[C@H]1CNC(=S)N1CC1CCN(CC2CCC(C)CC2)CC1 (some centres not stated)	2.0%	-3.6	31	-1.4	-2	0
Cc1ccc2nc(CN3CCN(S(=O)(=O)c4ccc(C)c(C)c4)CC3)oc2c1	5.6%	.	-7	1.6	.	.
NNc1nccc(Nc2ccccc2C(=O)O)n1	2.4%	2.2	27	1.5	-90*	-67*
Cc1nn(C(C)C(=O)O)c2ccccc12 (configuration not stated)	-6.0%[38.3 µM]	2.8	16	0.5	6	11
CC(=O)c1ccc(N(C)C)c2c(N(C)C)cccc12	0.2%	-2.0	-14	0.1	-4	-1
CCC(=O)N1CCc2cc(S(=O)(=O)NC(Cc3ccccc3)C(=O)NC3CCCCC3)ccc21 (configuration not stated)	8.3%	-6.0	-9	1.0	1	-7
N#Cc1cnn(-c2ccc(F)cc2)c1N	-0.1%	0.5	2	0.2	-12	0
Nc1cccc(-c2nc3ccccc3s2)c1	0.5%	-2.7	6	-0.5	-1	0
CC(=O)Nc1ccc2nc(-c3cc(C)ccc3C)[nH]c2c1	7.0%	.	24	-0.2	.	.
Cc1csc(NC(=O)C(NS(=O)(=O)c2ccc(Br)s2)c2ccccc2)n1 (configuration not stated)	2.9%	-6.9	-3	-0.2	-4	-5
CCOc1nc2ccccc2nc1NS(=O)(=O)c1ccccc1	0.9%[38.3 µM]	2.2	-27	1.8	5	1
Cc1cc(C(=O)OCC(=O)Nc2cc(C(F)(F)F)ccc2N2CCOCC2)c(C)o1	1.1%	-1.6	11	3.2	-4	-2
CC(C)c1ccc(/C=C/C(=O)NC(=S)NN2CCOCC2)cc1	0.2%	-0.4	-22	1.1	15	-12
Cc1c(NC(=O)c2cc(-c3ccc(O)cc3)on2)c(=O)n(-c2ccccc2)n1C	0.6%&1.4%	3.2	-4	0.4	23	1
Cc1c(S(=O)(=O)N2CCC(C)CC2)c(=O)n(C)c(=O)n1C	2.8%	3.8	-6	-0.1	6	-7
CCN(CCCNC(=O)Cn1ncc2c([nH]c3ccccc32)c1=O)Cc1ccccc1	-2.2%	-11	-5	-1.0	4	.
Cc1ccc(C2C(=O)N(C3CCCCCC3)CC(=O)N2C(C)C)cc1 (configuration not stated)	0.9%	.	5	-0.3	.	.
CCOC(=O)CCC(=O)N1CCOCCOCCN(C(=O)CCC(=O)OCC)CCOCC1	-0.8%	-0.9	-1	-0.2	1	6
Cc1ccn2c(Nc3ccccc3C)c(-c3cccnc3)nc2c1	2.8%&-0.2%	1.5	-7&-7	1.0&-0.6	-8	-10
Cc1ccc2c(c1)N=C(c1ccc(Cl)cc1)CO2	0.9%	5.5	0	0.7	16	4
O=C1C2C3C=CC(C3)C2C(=O)N1c1nccs1 (configuration not stated)	17%[38.3 µM]	-3.1	6	-0.7	31	44
Cc1n[nH]c(C)c1CCC(=O)N/N=C/c1c[nH]c2ccccc12	-0.9%	-3.2	6	-0.3	-6	1
O=C(CSc1ncnc2ccccc12)NCc1ccc2c(c1)OCO2	1.5%	-3.5	-8	0.9	-3	17
Cc1ccccc1NC(=O)Cn1c(C)nc2ccc(N)cc2c1=O	-0.2%	-0.4	-10	-0.9	2	4
Cc1ccc(N/C(=N/S(=O)(=O)c2cccs2)c2ccccc2)c(C)c1	1.8%	-3.6	-8	1.8	-1	0
O=C(COC(=O)c1ccccc1)NCC1CCCO1 (configuration not stated)	0.9%	-3.3	-20	-0.7	4	5
COc1ccc(S(N)(=O)=O)cc1C(=O)OCC(=O)NC(C)(C#N)C1CC1 (configuration not stated)	-2.2%	-6.0	0	-0.1	0	4
CCOc1ccc(CCNC(=O)c2c(C)noc2C)cc1OCC	12%	-3.6	2	0.1	5	-5
COc1ccc(-n2nc([N+](=O)[O-])c(=NC3CCN(Cc4ccccc4)CC3)n2O)cc1	-2.8%	?	7	-0.1	-23	-21
Cc1ccc(N=C2SC(C(=O)NCCc3ccccc3)CC(=O)N2C)cc1C (configuration not stated)	-0.3%	1.6	-5	0.1	-1	-17
O=C(NC(=S)Nc1ccc(S(=O)(=O)Nc2ccccc2)cc1)C1CC1	-0.3%	-1.0	1	0.2	9	1
N#Cc1cccc(N2[C@@H](Cc3cc4ccccc4n3Cc3ccccc3)COC[C@H]2Cc2ccc3ccccc3c2)c1	0.4%	-2.1	3	0.5	-5	-2
COc1cc(-c2nc3sc(C)c(C)c3c(=O)o2)cc(OC)c1OC	6.2%	-3.4	.	.	-11	.
O=C(CN1CCN(Cc2ccccc2)CC1)Nc1ccc(Cl)cn1	-2.5%	-3.9	8	-1.0	4	-3
Cc1cc(C)c2cc(CN(CCO)C(=O)NC3CCCCC3)c(=O)[nH]c2c1	-0.4%	3.7	-2	-0.2	2	0
Cn1c(=O)cc(SCC(=O)N2CCN(c3ccc(F)cc3)CC2)c2ccc(Cl)cc21	1.8%	.	-5	-0.6	.	.
COc1ccccc1-n1c(CNC(=O)COc2ccccc2)n[nH]c1=S	0.2%[38.3 µM]	-0.2	-6	-0.3	-1	-11
NS(=O)(=O)c1cc(C(=O)OCCNC(=O)c2ccccc2)c(Cl)cc1Cl	1.2%	-2.7	7	1.5	-1	-3
O=C(CCCSc1nc2ccccc2[nH]1)N1CCN(c2ccccc2)CC1	-1.6%	-1.8	-16	1.0	-2	0
COc1ccc(S(=O)(=O)NC2CC3CCC2C3)cc1Cl (configuration not stated)	3.0%[38.3 µM]	-2.1	17	1.0	-1	7
CC(=O)Nc1ccc(-c2ccnc3c2CC(C)(C(=O)Nc2ccc4c(c2)OCO4)O3)cc1 (configuration not stated)	6.1%	-2.3	.	-0.7	?	-23
Cc1cc(C)nc(Nc2n[nH]c(-c3ccccc3Br)n2)n1	2.4%	-2.4	9	-0.2	8	-2
CCc1ccc(/C=N/NC(=O)c2cc(-c3ccncc3)nc3ccccc23)s1	4.7%	4.1	-11	2.0	-14	-5
Cc1cc(C)c(NC(=O)C(=O)NCc2ccco2)c(C)c1	2.1%	-3.3	-17	-0.5	8	2
Cc1cc(=O)n(Cc2cccc(Cl)c2)c2c1c(C)nn2-c1ccccc1	2.2%	.	5	2.3	.	.
Cc1nc(C(F)(F)F)ccc1C(=O)N1CCC1(C)C(=O)NS(=O)(=O)c1ccc(C#N)cc1 (configuration not stated)	-0.7%	1.1	.	0.6	-7	7
CC(C)C(=O)Nc1nnc(CCN2CCCCC2)s1	9.2%[38.3 µM]	-0.5	2	-0.3	7	1
CCOc1ccccc1NC(=O)c1ccc2c(Cl)c3c(nc2c1)CCCC3	0.9%	.	1	-0.6	.	.
COc1ccccc1OCc1ccc(C(=O)N2CCN(C(=O)c3ccco3)CC2)cc1	1.0%	1.5	6	0.9	0	1
CC1CCC(C(C)C)C(OC(=O)Cn2nnc3c(cnn3-c3ccccc3)c2=O)C1 (configuration not stated)	4.5%	-3.6	-8	1.4	-1	4

(more compounds)
SMILES	PINK1 modulator	D2 ag	TRPML1 inh	TRPML1 agonist	Six1-Eya2 inh	CtBP-E1A blk
COc1ccc(C(=O)N/C(=C\c2cn(C)c3ccccc23)C(=O)N2CCOCC2)cc1OC	-1.5%	-3.7	48	0.1	-6	6
COC(=O)CNC(=O)Cn1cnc2sc(C)c(S(=O)(=O)N3CCC(C)CC3)c2c1=O	0.6%	0.4	-18	0.9	2	8
Cc1c(C(=O)OCCOc2ccc(Br)cc2)sc(=S)n1C	?	0.2	6	1.8	3	.
O=C(CN1C(=O)C(c2ccc(F)cc2)=NC12CCCCCC2)Nc1ccc(F)c(Cl)c1	0.6%	.	-25	0.2	.	.
CC(=O)Nc1ccc(-c2nnc(SCC(=O)n3c4c(c5ccccc53)CCCC4)n2C)cc1	0.3%	-1.6	6	-0.3	0	-15
CCN(CC(=O)Nc1c(F)cccc1F)C(=O)C1CC(=O)N(CCc2ccccc2)C1 (configuration not stated)	-3.7%	-0.3	-10	-0.1	1	3
CCCC(C)NC(=O)c1ccc(C2SCC(=O)N2Cc2ccco2)cc1 (configuration not stated)	2.2%	-0.9	1	-1.6	-3	5
CC1(C(=O)NS(=O)(=O)C2CC2)CCCN(C(=O)COc2ccc(Cl)cc2Cl)C1 (configuration not stated)	0.5%	-3.1	-27	-0.1	-4	-1
COc1cccc(-c2nc(SCC(=O)Nc3ccc4c(c3)OCCO4)c(-c3ccccc3)[nH]2)c1	-1.1%	.	19	0.5	.	.
COc1ccc(S(=O)(=O)NCC2CCC(C(=O)N3CCC4(CC3)OCCO4)CC2)cc1 (configuration not stated)	-1.0%	-1.0	27	-0.4	-2	-2
CSCCC(NC(=O)c1ccccc1Cl)C(=O)NC1CCN(Cc2ccccc2)CC1 (configuration not stated)	-1.3%	-2.0	31	-0.1	7	9
COc1ccc(N(C(=O)Cc2cccs2)C(C(=O)NC2CCCCC2)c2cccn2C)cc1OC (configuration not stated)	-0.2%	-4.2	3	-0.9	7	5

A stretch taken from the entries so far, as a working copy:
SMILES	PINK1 modulator	D2 ag	TRPML1 inh	TRPML1 agonist	Six1-Eya2 inh	CtBP-E1A blk
COc1cccc(-c2nc(SCC(=O)Nc3ccc4c(c3)OCCO4)c(-c3ccccc3)[nH]2)c1	-1.1%	.	19	0.5	.	.
COc1ccc(S(=O)(=O)NCC2CCC(C(=O)N3CCC4(CC3)OCCO4)CC2)cc1 (configuration not stated)	-1.0%	-1.0	27	-0.4	-2	-2
CSCCC(NC(=O)c1ccccc1Cl)C(=O)NC1CCN(Cc2ccccc2)CC1 (configuration not stated)	-1.3%	-2.0	31	-0.1	7	9
COc1ccc(N(C(=O)Cc2cccs2)C(C(=O)NC2CCCCC2)c2cccn2C)cc1OC (configuration not stated)	-0.2%	-4.2	3	-0.9	7	5
